# OX1R antagonist – human HCRTR1 antagonism | O43613 | CHO/OX1R cells, Fluo-8 calcium fluorescence, orexin A | inhibition, % at 5 µM | actives 0.43% (n = 330,000);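 active means inhibition above its plate's threshold, mean inhibition of all tested compounds on the plate plus 3 SD, cut at about 37% in these data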;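 further: 0% = orexin A challenge wells and 100% = SB-334867-A antagonist wells; not every result past the cut was called active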
# Target sequence (O43613 whole entry, looked up): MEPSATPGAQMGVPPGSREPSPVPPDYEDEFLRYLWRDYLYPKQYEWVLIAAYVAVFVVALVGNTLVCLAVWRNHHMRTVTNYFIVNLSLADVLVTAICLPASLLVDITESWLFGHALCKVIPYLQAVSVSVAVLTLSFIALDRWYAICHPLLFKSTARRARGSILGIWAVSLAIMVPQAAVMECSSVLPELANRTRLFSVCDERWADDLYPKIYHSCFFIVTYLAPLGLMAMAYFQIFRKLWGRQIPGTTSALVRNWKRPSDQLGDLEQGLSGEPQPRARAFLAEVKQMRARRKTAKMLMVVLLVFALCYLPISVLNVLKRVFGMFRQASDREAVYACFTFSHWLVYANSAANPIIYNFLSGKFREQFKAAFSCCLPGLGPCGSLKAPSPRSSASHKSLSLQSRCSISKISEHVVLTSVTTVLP
# The depositor's hits bear a star; & = joins results of further samples.
SMILES,OX1R antagonist
COc1cccc2cc(C(=O)N(C)C3CCN(C)CC3)c(=O)oc12,-18.8
COCCCn1cn[nH]c1=S,-19.2
O=C(CNC(=O)c1ccco1)NCC(=O)OCc1ccccc1Br,-6.4
COc1ccccc1N1C(=O)CC(N(O)c2ccccc2)C1=O (centres undefined),-11.9
CCNc1nnc(CCn2nc(C)c(Br)c2C)s1,-20.7
COC(=O)Cc1c(O)ccn(Cc2ccccc2OC)c1=O,-9.7
CCOc1ccc(NC(=S)N2CCCN(Cc3cccc(Cl)c3)C2)cc1,-21.0
O=C(O)c1ccc(CSCc2c(F)cccc2Cl)o1,2.5
COC(=O)c1c(NC(=O)COC(=O)C2CCC2)sc(C)c1C,-5.1
CC(NC(=O)COc1ccc(S(=O)(=O)N2CCCC2)cc1)c1ccccc1 (centres undefined),-33.9

# 7 compounds out of the list, sorted by formula weight, high to low.
SMILES,OX1R antagonist
CCOc1ccc(NC(=S)N2CCCN(Cc3cccc(Cl)c3)C2)cc1,-21.0
CC(NC(=O)COc1ccc(S(=O)(=O)N2CCCC2)cc1)c1ccccc1 (centres undefined),-33.9
COc1cccc2cc(C(=O)N(C)C3CCN(C)CC3)c(=O)oc12,-18.8
COC(=O)c1c(NC(=O)COC(=O)C2CCC2)sc(C)c1C,-5.1
COc1ccccc1N1C(=O)CC(N(O)c2ccccc2)C1=O (centres undefined),-11.9
O=C(O)c1ccc(CSCc2c(F)cccc2Cl)o1,2.5
COCCCn1cn[nH]c1=S,-19.2

# Following part.
SMILES,OX1R antagonist
O=S(=O)(c1cccc(C(F)(F)F)c1)N1CCCC1c1cccnc1 (centres undefined),-12.3
N/C(=N\OC(=O)/C=C/c1ccc(Br)cc1)c1ccccn1,-15.1
COc1ccc(-n2c(SC(CN3CCCCC3)CN3CCCC3=O)nc3ccccc3c2=O)cc1 (centres undefined),-35.5
O=C(NCc1cccnc1)c1cn(-c2ccccc2)nc1-c1cccs1,2.2
O=C(NCc1ccccc1)C1=C[C@H](C2CCCCC2)C[C@H](OCCCCO)O1,-27.9
Cc1cccc(-n2c(SCC(=O)Nc3ccc4c(c3)OCO4)nnc2-c2ccoc2C)c1,-35.9
COc1cccc(CNC(=O)c2nnn(-c3ccc(OC(F)(F)F)cc3)c2N)c1,-10.9
O=C(CCN1C(=O)/C(=C/c2cccc(Br)c2)SC1=S)Nc1cccnc1,-16.5
COc1ccc(-n2c(SCC(=O)Nc3nccs3)nnc2-c2ccccc2)cc1,-24.9
CC(=O)C1(C)N(O)C(C)(C)C(c2ccco2)=[N+]1[O-] (centres undefined),-7.8
C=CCn1c(SCC(=O)NC2CCS(=O)(=O)C2)nnc1-c1ccc(Cl)cc1 (centres undefined),-3.1
CCO[C@@H]1OC(C(=O)N2CCCCCCC2)=C[C@H](c2ccc3c(c2)OCO3)[C@H]1CCCO,-19.3
COc1ccc(C(=O)N2CCOC23CCN(c2ncccn2)CC3)cc1,-15.2
O=c1c([N+](=O)[O-])c[nH]c2ccccc12,-9.4
Cc1cc(=O)oc2cc(NC(=O)c3cc4ccccc4o3)ccc12,-8.0
O=C(NCCOc1ccc(Cl)cc1)C(=O)NCC1CCCO1 (centres undefined),-8.2
COc1cc(/C=C2\SC(=S)N(CC(=O)NC3=NCCS3)C2=O)cc(OC)c1OC,-11.9
Cc1cc(C)c(N2C(=O)C3C4CC(=O)C(c5ccccc54)C3C2=O)c(C)c1 (centres undefined),-11.8
COc1ccc(N2C(=O)CSC2c2ccccc2F)c(OC)c1 (centres undefined),-22.0
Cc1ccc(C(=O)CC2(O)C(=O)Nc3ccccc32)s1 (centres undefined),1.7
O=C(Nc1cccc2nsnc12)c1cccs1,-11.1&-30.1
CC(NC(=O)CN1CCN(c2cccc(Cl)c2)CC1)c1ccccc1 (centres undefined),-20.3
CCCNC(=O)CSc1nc2[nH]ncc2c(=O)[nH]1,6.5
Cc1nnc(N2C(=O)C(=O)/C(=C(/O)c3ccc4c(c3)OCCO4)C2c2ccc(F)cc2)s1 (centres undefined),-17.6
CCOc1ccc(-n2c(C)c(C(C)=O)c3cc(O)ccc32)cc1,-17.7
CCC1CCCCN1Cc1nc2c(c(=O)n(C)c(=O)n2C)n1CCC(C)C (centres undefined),-24.9
NC(CCC(=O)O)C12CC3CC(CC(C3)C1)C2 (centres undefined),-4.8
COCCCn1c(SCC(=O)NCc2ccccc2)nc2ccccc2c1=O,-18.1
O=C(Nc1ccc(OC(=O)c2cccnc2)cc1)c1cccnc1,11.8
Cc1ccc(NC(=O)Cn2c3ccc(F)cc3c3nc4n(c(=O)c32)CCS4)cc1F,-13.1
COc1ccc(-c2cc(C)no2)cc1S(=O)(=O)N1CCN(c2ccc([N+](=O)[O-])cc2)CC1,-11.5
Cc1ccc(NC(=O)Cn2cnc3c(nnn3Cc3ccc(F)cc3)c2=O)cc1,5.2
O=C1/C(=C/c2cccc(Cl)c2)SC(=S)N1CCC(=O)N1CCCCC1CCO (centres undefined),-27.2
Nc1nc2nccc(-c3ccc(Cl)cc3)n2n1,-13.8
Cc1noc(C)c1S(=O)(=O)N1CCCC(C(=O)NCCc2ccc(Cl)cc2)C1 (centres undefined),-23.6
O=C(O)CCNC(=O)/C(=C\c1ccco1)NC(=O)c1ccco1,-7.1
COC(=O)c1ccc(/C=N/OCC(=O)NC2CCCC(C)C2C)cc1 (centres undefined),-21.0
COC(=O)C1=C(C)NC(C)=C(C(=O)OC)C1c1ccc(N(C)C)cc1,-18.4
CCn1ncc(C2C(C(=O)Nc3ccc(C)cn3)=C(C)NC3=C2C(=O)CCC3)c1C (centres undefined),2.1
O=c1c(-c2cnn(-c3ccccc3)c2)coc2cc(O)ccc12,-12.4
O=C(NCC1CCCO1)c1cccc(S(=O)(=O)NCc2ccccc2)c1 (centres undefined),-13.8
Cc1ccc(COc2cccc3c2CCN(Cc2ccc(F)cc2)C3=O)cc1,-22.3
COc1ccc2[nH]cc(CCNC(=O)c3ccc([N+](=O)[O-])cc3)c2c1,-26.5
CSc1c[n+]2c(n1C)CCC2,-11.5
CCN(CC)C(=O)c1ccccc1NC(=O)c1ccccc1SC,-9.6
S=c1[nH]nc(-c2cnccn2)n1-c1ccccc1,-9.7
O=C(CCCn1c(=O)[nH]c2ccc(Br)cc2c1=O)NCc1ccc(Cl)cc1,-27.9
COc1ccc(-c2nnn(CC(=O)c3ccc4c(c3)OCCO4)n2)cc1OC,-17.7
CCc1ccccc1NC(=O)CCCN1C(=O)C2CC=CCC2C1=O (centres undefined),-19.9
COc1cc(NC(=O)c2ccccc2[N+](=O)[O-])c(C(=O)O)cc1OC,-33.5

# Continued:
SMILES,OX1R antagonist
CC(C)(C)NC(=O)C(c1cccs1)N(C(=O)C(=O)NC1CCCC1)c1ccccc1F (centres undefined),-19.2
Cc1cc(=O)[nH]c(SCC(=O)N(CCC#N)c2ccccc2)c1C#N,-27.1
CCCn1nc(NC(=O)C2CCCO2)c2cc3cc(C)ccc3nc21 (centres undefined),-23.6
NC(=O)c1ccc(NC(=O)CCCc2nc(-c3ccccc3Cl)no2)cc1,-6.2
CC(C)Cc1cc(C(=O)N2CCC(N3CCC(C(=O)NC4CC4)CC3)CC2)n[nH]1,-10.2
O=C1C(Cc2ccccc2)Nc2ncnc(N3CCN(c4ccccc4)CC3)c2N1Cc1ccccc1 (centres undefined),-15.4
CC(C)(C)OC(=O)N1CCC[C@H]1c1nnc(SCc2c(F)cccc2Cl)o1,-49.6
O=C(NC1CCCCCC1)C1CCN(S(=O)(=O)c2ccccc2)CC1,-16.9
Cn1c(=O)oc2cc(S(=O)(=O)N3CCc4ccccc43)ccc21,-10.6
COc1ccc(-c2cc(=O)c3c(OC)c(OC)c(OC)c(OC)c3o2)cc1OC,-27.3
CNC(=O)COc1ccc(Cl)c2cccnc12,-11.3
CC(=O)Nc1ccc(S(=O)(=O)N(Cc2cccnc2)Cc2cc3ccc(C)cc3[nH]c2=O)cc1,-7.6
CCCCC(=O)Nc1ccc(C(=O)NCCCn2ccnc2)cc1,-9.1
CSCCC(NC(=O)OC(C)(C)C)C(=O)NC(C(=O)NC(CC(C)C)C(N)=O)C(C)C (centres undefined),-8.6
C=CCc1cc(Cl)ccc1OCCOCCNC(C)(C)C,1.9
COc1ccc(C2=C(Nc3ccccc3)c3ccccc3C2=O)cc1,-20.1
COc1cccc(-c2cc(C(=O)N3CCOCC3)no2)c1,-5.6
COc1cccc(NC(=O)Nc2ccc(Cc3ccncc3)cc2)c1,-2.2
Cc1cc(C(=O)Nc2c(C)n(C)n(-c3ccccc3)c2=O)on1,-1.5
CCc1cc(=O)n2[nH]c(C)c(-c3ccc(OC)cc3)c2n1,-16.8
COc1cccc(-c2ccc(=O)n(CC(=O)NCCN3CCOCC3)n2)c1,-0.5
Cn1cnnc1SCC(=O)NCc1cccc(C(F)(F)F)c1,1.9
Cc1ccccc1CNC(=O)CN(c1ccccc1Cl)S(C)(=O)=O,-6.9
COc1cccc(-n2nnc3c(=O)n(Cc4cccc(C)c4)cnc32)c1,-21.6
COc1ccc(OCC(=O)O/N=C(\N)c2ccc(OC)cc2)cc1,-19.4
CCCCOc1ccc(-c2nc(SCC(N)=O)n[nH]2)cc1,-9.6
CCCCC(=O)N1CC2(C)CN(C(=O)CCCC)CC(C)(C1)C2=O,-33.1
COc1ccc(N2CC(C(=O)NC3CC(C)(C)NC(C)(C)C3)CC2=O)cc1 (centres undefined),-12.2
COCCCNC(=O)c1cc(Sc2ccc(F)cc2)nc2ccccc12,-20.3
O=C(CCc1nnc(C2CCCCC2)o1)NCc1ccc(F)c(F)c1,-22.2
Cn1c(Cn2nnc3ccccc32)nnc1SCC(=O)c1ccc(F)cc1,-27.1
O=C(O)c1cc(NCc2ccccc2C(F)(F)F)ccc1N1CCOCC1,-4.7
Cc1ccc(CNC(=O)NC23CC4CC(CC(C4)C2)C3)cc1,-13.2
CCCC(C(=O)NCC1CCCO1)N(Cc1ccco1)C(=O)CNS(=O)(=O)c1ccc(F)cc1 (centres undefined),-25.6
CC1(C)C(=O)OC(/C=C\c2cccc([N+](=O)[O-])c2)C(C)(C)C1=O (centres undefined),-29.1
O=C(Nc1ccc(OC(F)(F)F)cc1)c1cnc2n(c1=O)CCS2,1.9
COc1cc2cc(Oc3ccc4ccc(=O)oc4c3)c(=O)oc2cc1OC1OC(COC(=O)CC(C)(O)CC(=O)O)C(O)C(O)C1O (centres undefined),-8.8
Cc1ccc([N+](=O)[O-])cc1NC(=O)CSc1nnc(C)n1CC1CCCO1 (centres undefined),-3.7
C=CCn1c(-c2csc3c2CCC(C)C3)n[nH]c1=S (centres undefined),-17.6
O=C(O)c1cccc(NC(=O)c2ccc(N3C(=O)c4ccc(C(=O)Nc5cccc(C(=O)O)c5)cc4C3=O)cc2)c1,-10.1

# Exported with the structure last: entries from further up.
OX1R antagonist | SMILES
-3.7 | Cc1ccc([N+](=O)[O-])cc1NC(=O)CSc1nnc(C)n1CC1CCCO1 (centres undefined)
-25.6 | CCCC(C(=O)NCC1CCCO1)N(Cc1ccco1)C(=O)CNS(=O)(=O)c1ccc(F)cc1 (centres undefined)
-29.1 | CC1(C)C(=O)OC(/C=C\c2cccc([N+](=O)[O-])c2)C(C)(C)C1=O (centres undefined)
-8.8 | COc1cc2cc(Oc3ccc4ccc(=O)oc4c3)c(=O)oc2cc1OC1OC(COC(=O)CC(C)(O)CC(=O)O)C(O)C(O)C1O (centres undefined)
1.9 | O=C(Nc1ccc(OC(F)(F)F)cc1)c1cnc2n(c1=O)CCS2

# (cont.)
SMILES,OX1R antagonist
Cc1nc2c(c(=O)n1CCC1=CCCCC1)c1nc3ccccc3nc1n2/N=C/c1ccccc1,-17.7
CSc1ccccc1C(=O)NCCc1ccc(S(=O)(=O)N2CCCCC2)cc1,-19.2
Cc1ccc(NC(=O)CC2(CC(=O)O)CCCC2)cc1,-5.0
Cc1cccc(NC(=O)CN2C(=O)S/C(=C\c3ccc(-c4cccc(C(=O)O)c4C)o3)C2=O)c1,-24.9
Cc1c(C(=O)N2CCCCCC2)c(S(=O)(=O)Nc2ccc(F)cc2)c(C)n1C,-37.0
CC(=O)C1=C(O)CC(C)(C)CC1=NCCc1nc2ccccc2[nH]1,-13.2
Cc1c(NC(=O)C(C)Oc2ccc(Br)cc2Cl)c(=O)n(-c2ccccc2)n1C (centres undefined),-25.1
CC1Cc2cc(S(=O)(=O)CCC(=O)NC3CCCCC3)ccc2N1C(=O)C1CC1 (centres undefined),-20.9
COc1ccc(CC(=O)NCC2CCCN(Cc3cccc(C(F)(F)F)c3)C2)cc1 (centres undefined),-20.2
COc1cc(OC)c(OC)cc1CN1CCN(Cc2ccc(SC)cc2)CC1,-29.8
COCCSc1nnc(NC(=O)C(C)(C)C)s1,-11.3
CCn1nc(C)c(CN2CCC(n3nccc3NC(=O)CCCc3ccccc3)CC2)c1C,-13.4
COc1cc(-c2nc3n(n2)C(c2cccc(OC)c2OC)C2=C(CCCC2=O)N3)cc(OC)c1OC (centres undefined),-12.2
CCC(=O)Nc1ccc(NC(=O)CSc2nnnn2CC)cc1C,-4.8
CCCc1ccc(OCC(=O)NNC(=S)NC(=O)c2ccco2)cc1,23.0
CC(NC(=O)C1CCN(S(=O)(=O)c2ccc(Br)s2)CC1)c1ccccc1 (centres undefined),-44.2
CCC(C)[C@H](NC(=O)[C@@H]1CSC2c3ccccc3C(=O)N21)C(=O)NCC1CCCO1 (some centres undefined),-13.8
CN[C@H]1CCc2cc(OC)c(OC)c(OC)c2-c2ccc(OC)c(=O)cc21,-20.9
N/C(=N\S(=O)(=O)c1cc(C(F)(F)F)cc(C(F)(F)F)c1)c1cccs1,-4.0
N#Cc1ccsc1NC(=O)CSc1ncnc2ccccc12,-13.6
CCc1nnc(NC(=O)C2CCC2)s1,-10.2
CCOc1ccc(C(=O)NCC2CCCN2S(=O)(=O)c2cccs2)cc1 (centres undefined),-17.2
Cc1ccc(N(C(=O)CCC(=O)Nc2cc(C)on2)C(C(=O)NC2CCCC2)c2cccs2)cc1 (centres undefined),-28.1
COc1cc(NC(=O)COC(=O)/C=C/c2c(C)nn(C3CCS(=O)(=O)C3)c2Cl)cc(OC)c1OC (centres undefined),-6.4
CSc1nc2ccc3nc(NC(=O)c4ccc(C)cc4)sc3c2s1,1.9
O=C(OCC(=O)c1ccc(Cl)s1)c1ccccn1,-12.6
O=c1oc2ccccc2c(Nc2ccc(O)cc2)c1[N+](=O)[O-],-19.9
COC(=O)c1ccccc1NC(=O)C1CCN(C(=O)c2cc(OC)cc(OC)c2)CC1,-29.9

# A portion of the library, and most or all hits are left out here.
